Compound activity (PubChem)
Efflux pump mplx: antifungal efflux pump inhibition, Nile Red retention. S. cerevisiae Candida pump triplex. inhibition, % at 10 µM. 0.44% of 330,000 active. AID 485275;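 active = plate passing quality check with inhibition over a set limit, or well fluorescence over plate mean plus 4 SD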;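 note: Nile Red retained in pooled yeast measured as flow cytometry median fluorescence; 0% = buffer negative control and 100% = Enniatin B positive control; higher means more Nile Red kept so more efflux inhibition; some compounds called inactive have numbers as strong as hits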
GLD-1 RNA inh: GLD-1-TGE RNA interaction inhibition (C. elegans); AID 2280; 0.44% of 320,000 active; inhibition, % at 5.96 µM; purified GLD-1 + fluorescein TGE RNA, fluorescence polarization;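 active = percent inhibition above a per-plate cutoff, the plate mean of test compounds plus 3 SD, cut at about 30% in these data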;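 note: 0% = DMSO wells with GLD-1 and probe and 100% = wells lacking GLD-1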
GRK2 inh: inhibitors of human GRK2 displacing RNA aptamer; P25098; bead flow cytometry, FAM-aptamer displacement from GRK2; inhibition of aptamer binding, % at 10 µM; 0.59% of 330,000 active; AID 488847;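 active = inhibition of aptamer binding above 40%, roughly 3 SD of noise, on plates passing a quality check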;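 note: median bead fluorescence of bound FAM aptamer so fluorescent compounds give negative values; no value below 0 was filed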
VLA-4 inh: inhibition in a human VLA-4 binding assay | P13612 | VLA-4 expressing cells, ligand binding flow cytometry | inhibition, % (about 7 µM as worked out from the volumes in the protocol) | 0.2% of 330,000 active | AID 2557; in the data active = inhibition above about 50%
Target sequence (P13612 whole entry, looked up): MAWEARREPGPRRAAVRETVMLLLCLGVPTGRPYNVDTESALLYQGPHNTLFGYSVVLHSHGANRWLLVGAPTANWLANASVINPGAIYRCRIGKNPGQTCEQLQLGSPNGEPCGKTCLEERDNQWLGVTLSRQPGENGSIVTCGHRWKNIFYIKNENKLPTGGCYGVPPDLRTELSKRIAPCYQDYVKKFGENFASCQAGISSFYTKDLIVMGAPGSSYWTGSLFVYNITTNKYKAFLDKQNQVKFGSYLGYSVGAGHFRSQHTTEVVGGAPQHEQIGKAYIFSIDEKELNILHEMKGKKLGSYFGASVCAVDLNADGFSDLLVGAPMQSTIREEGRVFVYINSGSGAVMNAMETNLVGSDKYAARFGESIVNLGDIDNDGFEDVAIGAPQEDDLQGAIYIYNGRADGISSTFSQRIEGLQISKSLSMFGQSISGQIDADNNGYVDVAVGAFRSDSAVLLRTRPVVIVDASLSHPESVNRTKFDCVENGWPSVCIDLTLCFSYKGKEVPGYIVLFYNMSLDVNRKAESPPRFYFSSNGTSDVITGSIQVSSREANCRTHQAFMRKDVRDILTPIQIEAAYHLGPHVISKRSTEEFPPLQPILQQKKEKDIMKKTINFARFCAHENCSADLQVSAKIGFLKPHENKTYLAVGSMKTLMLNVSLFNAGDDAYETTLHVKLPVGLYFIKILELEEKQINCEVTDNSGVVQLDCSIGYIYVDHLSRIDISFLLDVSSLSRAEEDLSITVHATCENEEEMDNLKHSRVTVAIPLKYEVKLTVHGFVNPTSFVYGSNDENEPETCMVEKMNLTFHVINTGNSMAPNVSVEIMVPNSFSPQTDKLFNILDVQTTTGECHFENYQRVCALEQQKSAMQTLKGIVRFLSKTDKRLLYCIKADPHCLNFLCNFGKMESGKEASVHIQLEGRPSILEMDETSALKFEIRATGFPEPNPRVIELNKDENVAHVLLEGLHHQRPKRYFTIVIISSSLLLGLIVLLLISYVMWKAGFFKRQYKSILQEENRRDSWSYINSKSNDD
MEX-5 binding: C. elegans MEX-5 TCR-2 RNA binding activity. Q9XUB2. MEX-5/FITC-TCR2 RNA binding, fluorescence polarization; hits give low values. activity score (negative = inhibition of binding), % at 10 µM. 0.38% of 300,000 active. AID 1832;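 active = inhibition past about -25% in most replicates, and total fluorescence under double the plate's negative control median, limit read from the data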;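 note: 0% = DMSO and -100% = 5 µM competing unlabeled TCR2 RNA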
Fam108B inh: blocks mouse Fam108B hydrolase in RBBP9 counter-screen. 0.33% of 300,000 active. recombinant Fam108B, FP-Rh probe fluorescence polarization. inhibition, % at 9.51 µM;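 active = inhibition above the screen mean inhibition plus 3 SD, computed separately per campaign, cut at about 18% in these data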;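 note: inhibitors lower polarization as less probe binds the enzyme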
BCLXL inh: Bcl-xL (human) inhibition. inhibition, % at 10.9 µM. AID 2129. GST-Bcl-xL / FITC-Bim BH3 peptide fluorescence polarization. 0.7% of 320,000 active;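 active = inhibition above the mean of all tested compounds plus 3 SD, cutoff set per campaign, cut at about 30% in these data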;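 note: 0% = DMSO wells and 100% = unlabeled Bim-BH3 peptide competitor; inhibitors lower millipolarization by displacing the labeled peptide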
MCL1-BIM inh: MCL1-BIM-BH3 interaction inhibition (human); GST-MCL1 / FITC-Bim-BH3 fluorescence polarization; inhibition, % at 10.9 µM; Q07820; 0.68% of 320,000 active;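 active = inhibition above the mean inhibition of all tested compounds plus 3 SD, set per campaign, cut at about 40% in these data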;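 note: 0% = DMSO wells and 100% = unlabeled Bim-BH3 peptide control; higher means more loss of mP so more displacement of Bim peptide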
Active calls of the source: *; x = no result given. The list is partial, so the mix of outcomes need not match the whole.

SMILES,Efflux pump mplx,GLD-1 RNA inh,GRK2 inh,VLA-4 inh,MEX-5 binding,Fam108B inh,BCLXL inh,MCL1-BIM inh
Cc1ccc(-n2c(SCC(=O)NCC3CCCO3)nc3n[nH]c(C)c3c2=N)cc1Cl (centres undefined),0.1,8,1,4,1.7,1,3,-7
O=S(=O)(Nc1ccccc1O)c1cccc2cccnc12,0.1,-3,0,-16,-0.8,1,6,3
Cc1cc2cc(C#N)c(NCCNC(=S)NCCCN3CCOCC3)nc2cc1C,0.1,1,2,4,2.9,2,4,3
Cc1cccc(-c2n[nH]c(=S)n2/N=C/c2cccs2)c1,0.1,-2,4,1,0.6,-2,-41,-11
Cc1sc(-c2c(C#N)c(N)nc3c2CCCCCC3)cc1[N+](=O)[O-],0.0,3,0,2,-14,-2,-9,-27
COc1cccc(CNC(=O)CCNC(=O)C2CCN(S(=O)(=O)c3ccccc3)CC2)c1,0.1,5,0,18,2.1,-2,7,6
CCOC(=O)C1CCN(C(=O)CCCNC(=O)Cn2cnc3sc(C)c(C)c3c2=O)CC1,0.1,-2,0,3,-0.8,0,4,-1
COc1cccc(Cn2cnc3c(NS(=O)(=O)c4cc(Cl)ccc4Cl)c(C)c(C)cc32)c1,0.1,7,4,4,2.2,-4,-4,4
Cc1cc(SCC(=O)N2CCCC2=O)nc2c(C)cccc12,-0.1,-3,1,-6,-0.7,2,5,-7
COc1ccc(-c2csc(=Nc3c(C)n(C)n(-c4ccccc4)c3=O)n2C(C)(C)C)cc1,-0.1,5,1,0,0.8,0,5,8
COCCCNC(=S)NCCCNc1nc2cc3c(cc2cc1C#N)OCO3,-0.1,-1,2,4,0.6,-4,7,6
O=C(CSC1=Nc2ccccc2C2=NC(Cc3c[nH]c4ccccc34)C(=O)N12)NC1CCCCC1 (centres undefined),0.2,-7,3,-8,8.1,2,-2,2
CC1CN(C(=O)COC(=O)Cc2c(F)cccc2Cl)CC(C)O1 (centres undefined),0.2,-2,1,19,x,x,-3,-6
COc1ccccc1-c1n[nH]c(=S)n1Cc1ccccc1,-0.1,-1,1,8,-1.6,2,-8,-16
c1ccc(C2C3=C(CCCC3)Nc3ncnn32)cc1 (centres undefined),-0.1,3,1,-10,2.7,-7,1,11
COc1ccc(CN(C2CCCCC2C)S(=O)(=O)c2ccc(S(=O)(=O)N(C)C)cc2)cc1OC (centres undefined),-0.1,4,8,2,-2.9,0,6,-1
Cc1c(OC(C)C(=O)N2C[C@H]3C[C@@H](C2)c2cccc(=O)n2C3)ccc2c3c(c(=O)oc12)CCC3 (some centres undefined),-0.2,-1,0,13,3.2,3,3,1
CCOc1ccc2nc(NC(=O)NC3CCCCC3)sc2c1,0.2,5,2,12,0.1,-3,-1,-2
O=C(NC1CCCCC1)C(c1ccc(F)cc1)N(Cc1ccc2c(c1)OCO2)C(=O)c1cnsn1 (centres undefined),-0.1,-5,0,-4,2.5,3,3,-2
CCOc1ccc(S(=O)(=O)N2CCCCC2)cc1NC(=O)Cc1cccc(C(F)(F)F)c1,-0.2,6,2,7,x,x,7,6
COc1cccc(C(=O)NCCS(=O)(=O)N2CC(C)CC(C)C2)c1 (centres undefined),-0.1,8,0,41,-0.1,2,4,6
CC(=O)Nc1cccc(NC(=O)C2CC(=O)N(CCc3ccc(F)cc3)C2)c1 (centres undefined),-0.1,8,0,-9,3.0,0,4,2
COc1ccccc1NS(=O)(=O)c1cc(Cl)ccc1OC,0.0,-2,0,11,-2.3,2,-2,-2
O=[N+]([O-])c1ccc(O)c(Nc2c([N+](=O)[O-])ccc3nonc23)c1,-0.1,0,1,4,-4.2,5,1,4
COc1ccc(S(=O)(=O)N2CCCCCC2)cc1NC(=O)Cc1ccccc1,-0.3,2,0,1,0.8,0,-11,-5

Reformatted as labelled records: entries from further up.
COc1ccc(-c2csc(=Nc3c(C)n(C)n(-c4ccccc4)c3=O)n2C(C)(C)C)cc1
  Efflux pump mplx: -0.1
  GLD-1 RNA inh: 5
  GRK2 inh: 1
  VLA-4 inh: 0
  MEX-5 binding: 0.8
  Fam108B inh: 0
  BCLXL inh: 5
  MCL1-BIM inh: 8
COCCCNC(=S)NCCCNc1nc2cc3c(cc2cc1C#N)OCO3
  Efflux pump mplx: -0.1
  GLD-1 RNA inh: -1
  GRK2 inh: 2
  VLA-4 inh: 4
  MEX-5 binding: 0.6
  Fam108B inh: -4
  BCLXL inh: 7
  MCL1-BIM inh: 6

The list goes on:
SMILES,Efflux pump mplx,GLD-1 RNA inh,GRK2 inh,VLA-4 inh,MEX-5 binding,Fam108B inh,BCLXL inh,MCL1-BIM inh
COC(=O)Cc1ccc(NC(=O)c2ccc(Br)o2)cc1,0.0,1,1,-6,-1.3,2,5,11
Cc1ccc2nsnc2c1S(=O)(=O)N1CCN(Cc2ccc3c(c2)OCO3)CC1,-0.3,8,0,8,-0.2,5,7,5
Cn1nc(-c2ccccc2)cc1NC(=O)Nc1ccc(F)cc1,0.1,1,1,7,2.4,3,2,3
CCN(CC)c1ccc(S(=O)(=O)N2CCCCC2)cc1NC(=O)C1CSC2(C)CCC(=O)N12 (centres undefined),-0.2,1,0,-21,x,x,0,4
CN(C)CCN(C(=O)CN1C(=O)c2ccccc2C1=O)c1nc2cc3c(cc2s1)OCO3,-0.1,-2,0,-42,-0.8,-1,2,-4
CCOc1ccc(Oc2ccccc2NS(=O)(=O)c2ccc(CCC(=O)O)cc2)cc1,0.2,5,12,14,x,x,2,8
Cc1cccc(/C=C2\Sc3ccc(C(=O)N4CCC(C(N)=O)CC4)cc3N(C)C2=O)c1,-0.5,4,0,10,-3.5,2,2,8
COc1ccc(F)cc1C(=O)C1CCCN(C(=O)c2cccc(N(C)C)c2)C1 (centres undefined),-0.1,2,0,-2,-0.6,-1,1,4
NC(=O)c1ccc(NC(=O)COC(=O)C2(c3ccccc3F)CCCC2)cc1,0.1,-10,0,29,-2.0,-6,1,4
CCn1c2ccccc2c2cc(NC(=O)COC(=O)c3cc(OC)c(OC)cc3OC)ccc21,-0.1,6,0,-3,1.3,13,4,6
CC1(C)Cc2ccccc2C(C(=O)c2ccccc2)=N1,0.0,-7,0,11,-0.3,0,3,1
COc1ccc(Cl)cc1Nc1nc(N)c2ccccc2n1,-0.2,4,2,1,-2.7,-2,4,-4
COc1ccc(NC(=O)Nc2ccc3oc(C)nc3c2)cc1,0.0,5,1,6,-2.3,3,2,5
Cc1[nH]c2ccccc2c1/C=N/NC(=O)c1cc(-c2ccccc2)n[nH]1,0.1,-2,1,-5,-1.4,12,-1,5
O=C1Nc2cc(C(=O)N3CCOCC3)ccc2S/C1=C\c1ccccc1,-0.1,9,0,25,1.9,-1,6,11
Cc1ccccc1-n1c(-c2csc(C)c2C)n[nH]c1=S,0.1,5,0,-3,1.2,1,-2,-6
COc1cc(CO)c(Br)cc1OCC(N)=O,0.5,0,0,-5,-0.1,-4,8,6
CC(C(=O)NC1CCCc2ccccc21)N1CCN(Cc2ccc3c(c2)OCO3)CC1 (centres undefined),-0.1,-1,0,4,-0.7,-4,-3,1
CN(c1ccccc1)S(=O)(=O)c1ccc(C(=O)OCC(=O)NC(N)=O)cc1,0.1,-3,0,8,-0.6,-1,-1,5
CCOc1ccccc1CNC(=O)CCCn1ccc2cc(S(=O)(=O)N3CCCC3)ccc21,0.2,-1,0,5,2.1,0,5,1
CCc1cc(-c2n[nH]c(=S)n2C(C)c2ccccc2)cs1 (centres undefined),0.0,0,0,2,-3.3,2,-15,-17
N#Cc1cc(-c2ccccc2)[nH]c1-c1nccc2ccccc12,0.5,-2,3,2,-1.4,-2,0,-3
O=[N+]([O-])c1cc(-c2nnc(Nc3ccc(O)cc3)c3ccccc23)ccc1N1CCOCC1,0.4,0,1,-2,-0.3,7,3,2
O=c1cc(NC2CCCCCC2)[nH]c(=O)[nH]1,0.1,-3,0,3,3.9,1,-1,-2
N#Cc1cnn2cc(-c3ncc(C(F)(F)F)cc3Cl)cnc12,0.0,8,0,2,1.2,-2,4,-2

SMILES,Efflux pump mplx,GLD-1 RNA inh,GRK2 inh,VLA-4 inh,MEX-5 binding,Fam108B inh,BCLXL inh,MCL1-BIM inh
Cc1ccc(C(C)(C)C)cc1S(=O)(=O)N1CCC(C(=O)N2CCN(c3ccc(O)cc3)CC2)CC1,0.8*,3,0,6,x,x,9,8
COc1cccc(NC(=O)COc2ccc3c(c2)CCC3)c1,0.0,0,1,-7,-0.2,-4,-1,-4
COc1ccc(CCNc2ncnc3c2[nH]c2cc(OC)c(OC)cc23)cc1OC,-0.2,5,0,2,-1.7,9,-2,-1
COc1ccc(CN2CCN(C(=O)c3cccc4ccccc34)CC2)c(OC)c1OC,0.0,3,1,3,-2.0,1,1,4
COc1ccc(F)cc1S(=O)(=O)n1nnc2ccccc21,0.1,0,3,16,0.3,-2,4,-5
CC(C)(C)c1ccc(C(=O)NC(=S)Nc2nc3c(s2)CCCC3)cc1,0.1,4,1,9,-1.5,-6,3,7
CC(=O)c1cccc(S(=O)(=O)N2CCCC(c3nc4c(nnn4Cc4ccc(C)cc4)c(=O)[nH]3)C2)c1 (centres undefined),0.4,7,2,-9,-0.6,0,2,4
COc1ccc(NS(=O)(=O)c2c(F)cc(F)c(Cl)c2F)cc1S(=O)(=O)N1CCCCC1,-0.2,0,x,20,5.3,-1,3,7
Cc1ccc2cccc(S(=O)(=O)Nc3ccc4c(c3)OCO4)c2n1,0.1,7,2,8,-2.4,1,6,20
CCC(C)c1ccccc1N1CC(C(=O)Nc2cc(S(=O)(=O)N3CCOCC3)ccc2OC)CC1=O (centres undefined),-4.7,3,0,-5,1.9,-1,6,6
Cc1[nH]n2c(=O)c3c(nc2c1-c1ccccc1)CCCC3,0.0,1,4,-15,-2.6,3,2,2
CC(NC(=O)COC(=O)CSc1ccc(F)cc1)c1ccc(F)cc1 (centres undefined),0.0,-4,3,2,-3.4,0,-4,-3
Cc1cccc(C(=O)NN/C=C/C(=O)c2ccccc2)c1,0.1,3,0,11,3.3,1,-2,3
O=[N+]([O-])c1ccccc1S(=O)(=O)Nc1cccc(-c2ccc(N3CCCC3)nn2)c1,0.0,-2,2,5,-1.0,3,-1,8
CCS(=O)(=O)n1c(Cc2cccs2)nc2ccccc21,-0.1,1,0,4,2.2,0,6,3
Cc1cccc(NC(=O)CSCc2nc3c(nnn3Cc3ccc(F)cc3)c(=O)[nH]2)c1C,0.1,-6,4,-3,-2.8,3,-1,-3
O=S(=O)(c1ccc(F)cc1)N1CCC2(CC1)OCCN2S(=O)(=O)c1cccs1,0.1,7,0,6,1.1,-2,-1,-5
O=C(NC1CCCCC1)C(c1cccs1)N(C(=O)c1ccco1)c1ccc2c(c1)OCCO2 (centres undefined),0.2,1,3,-20,2.9,-7,-1,2
O=C(CCSc1nnc(-c2ccncc2)o1)Nc1cccc(Cl)c1,0.0,-4,4,0,-0.2,12,-3,-3
Cc1cc(C#Cc2c(-c3ccccc3)n(C)c3ccccc23)ccc1F,0.3,-13,0,-4,3.5,-7,-1,-1
COc1cc2c(cc1OC)CN(C(=O)CCCOc1ccc(Cl)cc1Cl)CC2,0.1,13,0,11,2.1,2,2,4
CCCn1nnc(NC(=O)c2ccc(-c3cc(Cl)ccc3Cl)o2)n1,-0.1,-3,0,9,0.1,-3,10,7
CCOCCCNC(=S)NCCCNc1nc2ccc(C)cc2cc1C#N,-0.1,-4,5,-5,-0.9,1,5,6
COc1ccccc1N1CN(CCc2ccccc2)CNC1=S,-0.1,-2,0,5,-0.7,4,7,11
CCOc1ccc(N2CC(C(=O)NCCN3C(=O)S/C(=C\c4cccnc4)C3=O)CC2=O)cc1 (centres undefined),0.4,0,3,-2,-1.2,1,-6,-2
COc1ccc(-c2ccc3c(N)c(C(=O)NC(C)C)sc3n2)cc1OC,-0.1,-1,4,-6,-2.8,3,1,1
O=C(NCCOc1nc(N2CCCCC2)nc(N2CCCCC2)n1)Nc1ccccc1,0.1,3,0,10,0.3,-4,1,7
